High-throughput results as filed in PubChem.
MLL AF4-AF9 inh: inhibitors of AF4 peptide binding to AF9, primary screen, biochemical, AlphaScreen, biotin-AF4 peptide, FLAG-AF9, single point. inhibition, % at 10 µM. AID 651704, 2012. hit rate 0.47% among 350,000;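 active means every replicate reaching a set inhibition limit, whatever the replicate mean, cut at about 25% in these data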;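 further: 0% = plate neutral control median and 100% = total signal loss; the record names both 10 and 1 µM as test concentration; the first replicate is given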
Target sequence (P42568 whole entry, looked up): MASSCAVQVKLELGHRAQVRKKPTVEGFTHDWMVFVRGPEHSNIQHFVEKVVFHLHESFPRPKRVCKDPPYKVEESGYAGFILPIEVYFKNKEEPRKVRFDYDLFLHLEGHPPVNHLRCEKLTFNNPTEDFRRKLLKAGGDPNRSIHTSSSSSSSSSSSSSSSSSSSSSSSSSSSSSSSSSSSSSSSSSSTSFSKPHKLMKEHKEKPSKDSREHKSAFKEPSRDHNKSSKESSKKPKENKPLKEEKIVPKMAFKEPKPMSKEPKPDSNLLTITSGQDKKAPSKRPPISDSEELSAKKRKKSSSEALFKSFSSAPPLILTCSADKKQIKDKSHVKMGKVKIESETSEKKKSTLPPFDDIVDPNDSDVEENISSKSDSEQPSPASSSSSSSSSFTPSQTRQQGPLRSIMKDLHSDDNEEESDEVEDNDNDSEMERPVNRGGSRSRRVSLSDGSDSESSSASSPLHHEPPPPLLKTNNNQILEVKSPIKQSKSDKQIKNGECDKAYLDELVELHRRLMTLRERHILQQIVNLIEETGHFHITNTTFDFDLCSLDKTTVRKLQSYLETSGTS
rRNA inh HTS: reduced GFP signal of wild-type E. coli, primary screen, bacterial rRNA inhibitor project, GFP/RFP fluorescence, OD600, single point; E. coli WT GFP vs humanized-ribosome RFP mutants, 24 h; stronger effect = lower value; DMSO median 0, no signal -100; GFP signal change (wild-type ribosome), % (test concentration not listed); hit rate 1.6% among 350,000; AID 720706, 2013;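 active means significant combined selectivity score with lowered wild-type GFP, culture density cut under 30%, mutant RFP and density less affected; inactive means any of these conditions unmet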; further: one replicate is shown; some compounds called inactive have numbers as strong as hits
rRNA inh HTS OD600: further read-out of rRNA inh HTS, marked with its call; OD600 change, %; measured here: OD600 growth;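 optical density of the mix in the first replicate; 0 = DMSO median and -100 = no signal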
rRNA inh HTS RFP: second read-out of rRNA inh HTS, no call of its own (marks repeat the call); RFP signal change, %; measured here: RFP humanized mutant strains;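 first replicate; 0 = DMSO median and -100 = no signal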
Numbers without * were called inactive; & = joins results of further samples.

Structure	MLL AF4-AF9 inh	rRNA inh HTS	rRNA inh HTS OD600	rRNA inh HTS RFP
C[C@@H]1CN([C@H](C)CO)C(=O)c2cccc(NC(=O)c3ccncc3)c2O[C@@H]1CN(C)S(=O)(=O)c1ccc(Cl)cc1	-2.3	-23*	0.0*	-9.6*
COc1cccc(C(=O)NCC[N+](C)(C)C)c1	-1.3	3	-2	-2.6
COc1ccc(NC(=O)C2C(c3ccc4c(c3)OCO4)=Nc3ccccc3N2C(=O)c2cccc(C(F)(F)F)c2)cc1 (configuration not stated)	0.2	9	11	3.1
O=C(NCC[C@H]1CC[C@@H](NC(=O)C2CC2)[C@@H](CO)O1)Nc1ccc(C(F)(F)F)cc1	12	0&-55	-1&-78	-1.1&-16
COC(=O)[C@@H]1[C@@H](CO)[C@@H]2Cn3c(ccc(-c4ccncc4)c3=O)[C@@H]2N1CC1CCCCC1	1.4	-5	-11	2.5
Cc1cccc(C)c1NC(=O)C(CCc1ccccc1)N1CCC(c2ccccc2)CC1 (configuration not stated)	-3.2	15	7	8.0
O=C(NCC[C@H]1CC[C@H](NC(=O)C2CCCC2)[C@H](CO)O1)c1ccc(F)cc1	0.1	-1	-1	-0.7
O=C(C1CCCC1)N1CC[C@@H]2[C@H](CO)Nc3ccc(Br)cc3[C@@H]21	-10	-5	-13	-5.9
O=C(Nc1ccc(F)cc1)N1CC(=O)N2[C@H](CO)[C@@H](c3ccc(-c4cccc(F)c4)cc3)[C@H]2C1	-6.9	-12	-35	0.3
C[C@@H]1CN([C@@H](C)CO)C(=O)c2cc(NC(=O)Nc3ccc4c(c3)OCO4)ccc2O[C@@H](C)CCCCO[C@H]1CN(C)C(=O)Nc1ccc(C(F)(F)F)cc1	0.3	0	11	-0.3
C[C@H](CO)N1C[C@H](C)[C@@H](CN(C)S(=O)(=O)c2ccccc2)Oc2ccc(NC(=O)CCC(F)(F)F)cc2CC1=O	0.5	-5	-4	-2.1
c1cc(-c2cc3nc(NCC4CC4)ccn3n2)ccc1OCCN1CCOCC1	6.5	-8	1	0.8
C/C=C/c1ccc2c(c1)O[C@@H](CN(C)C(=O)NC1CCCCC1)[C@@H](C)CN([C@H](C)CO)S2(=O)=O	2.5	-12	-24	-4.2
COc1ccccc1C(=O)Nc1ccc2c(c1)OC[C@H](C)N(C(C)=O)C[C@H](C)[C@@H](OC)CN(C)C2=O	-3.6	-2	-4	-1.0
CCCc1c(-c2cccc(F)c2)ncn1Cc1ccccc1OC	-0.5	-35	-78	-24
C/C=C/c1ccc2c(c1)O[C@H](CN(C)Cc1cccc(F)c1)[C@@H](C)CN([C@H](C)CO)S2(=O)=O	6.1	3	-4	6.2
CC(=O)N1[C@@H](CO)[C@@H]2c3ccccc3N(S(=O)(=O)c3cccc(C)c3)C[C@@H]21	2.1	3	10	2.6
COc1ccc(C#Cc2ccc([C@@H]3[C@@H](CO)N4CCCCN(S(=O)(=O)c5ccccc5)C[C@H]34)cc2)cc1	-3.9	6	8	0.4
Cc1noc(C)c1S(=O)(=O)Nc1ccc2c(c1)CC(=O)N([C@H](C)CO)C[C@H](C)[C@@H](CN(C)S(=O)(=O)c1ccc(Cl)cc1)O2	0.3	-7	-18	2.5
Cc1ccc(S(=O)(=O)N(C)C[C@@H]2OCCCC[C@H](C)Oc3ccc(NS(=O)(=O)c4cccs4)cc3C(=O)N([C@H](C)CO)C[C@@H]2C)cc1	1.4	0	2	0.3
Cc1ccc(F)c(S(=O)(=O)NC(=O)C2(C)CCN2C(=O)Cc2ccsc2)c1 (configuration not stated)	-4.7	6	18	0.3
Cc1ccc(S(=O)(=O)N(C)C[C@H]2Oc3ccc(NC(=O)NC(C)C)cc3C(=O)N([C@H](C)CO)C[C@H]2C)cc1	-3.3	1	-3	3.2
CCC(=O)Nc1ccc2c(c1)OC[C@@H](C)N(Cc1cccnc1)C[C@@H](C)[C@H](OC)CN(C)C2=O	-18	-2	3	4.4
CN(C)C(=O)C[C@@H]1C=C[C@@H](NC(=O)c2ccc(F)cc2)[C@H](CO)O1	0.4	0	2	-2.0
C[C@@H]1CCCCO[C@H](CN(C)S(=O)(=O)c2ccccc2)[C@@H](C)CN([C@@H](C)CO)C(=O)c2cc(NC(=O)Cc3ccccc3)ccc2O1	0.0	0	-1	-2.4
Cc1ccc(-c2ccc(C3[C@H]4CNC[C@@H]3N4S(=O)(=O)c3ccccc3C)cc2)cc1 (some centres not stated)	2.8&-3.7	-60&-54	-76&-71	-14&-7.5
CCCc1nc2c3ccccc3ccn2c1CC1CCCCC1	-2.3	-44	-72	-10.0
COc1ccc(-c2ccc3c(c2)O[C@H](CN(C)CC2CCOCC2)[C@H](C)CN([C@H](C)CO)S3(=O)=O)cc1	4.2	3	1	-1.6
Cc1ccccc1-c1ccc2c(c1)O[C@H](CN(C)Cc1ccncc1)[C@H](C)CN([C@H](C)CO)S2(=O)=O	6.4	-29	-56	25
CN(C)C(=O)[C@H]1[C@H](CO)[C@H]2Cn3c(cccc3=O)[C@@H]1N2CC1CCOCC1	-2.1	3	14	3.3
C[C@@H]1CN([C@H](C)CO)C(=O)c2cccc(NS(=O)(=O)c3ccc(F)cc3)c2O[C@@H]1CN(C)C(=O)Nc1cccc2ccccc12	2.9	-1	-11	-0.1
CC(=O)N(C)C[C@@H]1Oc2cc(-c3ccc(C#N)cc3)ccc2S(=O)(=O)N([C@H](C)CO)C[C@@H]1C	-0.7	-3	0	-1.0
CCCC(=O)Nc1ccc2c(c1)C(=O)N(C)[C@H]1CC[C@H](CC(=O)NCCCN(C)C)O[C@H]1CO2	1.1	3	3	-0.6
Cc1cc(Cl)ccc1-c1nc(NCc2ccccc2)nc2ccsc12	-6.8	9	20	5.0
CCCN(C)C[C@H]1OCCCC[C@H](C)Oc2ccc(NC(=O)C3CCCCC3)cc2C(=O)N([C@H](C)CO)C[C@H]1C	1.5	5	8	1.8
O=C(CC[C@H]1O[C@@H](n2ccc(=O)[nH]c2=O)[C@H](O)[C@@H]1O)NCCc1c[nH]c2ccccc12	0.7	3	-3	-2.0

Going on with the list:
Order of values – MLL AF4-AF9 inh, rRNA inh HTS, rRNA inh HTS OD600, rRNA inh HTS RFP
> O=C(Nc1ccc(F)cc1)N[C@H]1CC[C@H](CCNS(=O)(=O)c2ccccc2F)O[C@H]1CO
→ -0.9, -3, -2, -2.1
> COc1cccc(C(C)(O)c2nc(-c3cccc(C(C)C)c3)cs2)c1 (configuration not stated)
→ -3.1, 0, -33, 19
> CCS(=O)(=O)Nc1ccc2c(c1)C(=O)N(C)[C@@H]1CC[C@H](CC(=O)NCCOC)O[C@@H]1CO2
→ -2.5, 0, 2, -1.4
> C[C@@H]1CN([C@H](C)CO)C(=O)c2cccc(NC(=O)c3nc4ccccc4s3)c2O[C@@H]1CN(C)S(=O)(=O)c1ccc(F)cc1
→ -2.5, 2, -3, -0.1
> CCCNC(=O)N1C[C@H](C)[C@H](OC)CN(C)C(=O)c2ccc(NC(=O)CCC)cc2OC[C@H]1C
→ -1.4, 1, 7, -2.1
> COc1ccc(CN2C(=O)CN(S(C)(=O)=O)CC2(C)C(=O)Nc2ccc3c(c2)OCCO3)cc1OC (configuration not stated)
→ 3.3, 3, 3, -1.6
> C/C=C/c1ccc2c(c1)O[C@@H](CN(C)C(=O)Nc1ccc(C(F)(F)F)cc1)[C@@H](C)CN([C@@H](C)CO)S2(=O)=O
→ 3.6, 0, 2, 0.8
> C[C@@H]1CN([C@H](C)CO)C(=O)c2cc(NC(=O)Cc3cn(C)c4ccccc34)ccc2O[C@@H]1CN(C)Cc1ccc(C(=O)Nc2ccccc2N)cc1
→ -2.5, -2, 5, -1.8
> O=C(N[C@@H]1CC[C@@H](CCNS(=O)(=O)c2ccc(Cl)cc2)O[C@H]1CO)c1cccnc1
→ 0.8, -1, -4, 0.4
> CCNC(=O)C1CCCN(C(=O)c2cccc(C#N)c2)CC1 (configuration not stated)
→ -5.2, 13, 16, 1.9
> C[C@@H]1CN([C@@H](C)CO)C(=O)Cc2cc(NS(=O)(=O)c3ccccc3)ccc2O[C@@H]1CN(C)Cc1ccccc1
→ 0.3, -3, -10, 3.3
> O=C(Nc1ccccc1Cl)N1[C@@H]2CNc3ccccc3[C@@H]2[C@@H]1CO
→ -1.5, -3, -2, -1.0
> O=C(c1cccc(F)c1)N1CCCCN2[C@H](C1)[C@H](c1ccc(/C=C/c3ccccc3)cc1)[C@@H]2CO
→ -3.1, -4, 3, 3.0
> C[C@H](CO)N1C[C@H](C)[C@H](CN(C)Cc2ccccc2F)Oc2ncc(/C=C/c3ccccc3)cc2C1=O
→ 14, -36, -66, 22
> COc1ccc(-c2ccc([C@H]3[C@H](C#N)N[C@@H]3CO)cc2)cc1
→ -0.7, 3, 5, -1.3
> CC1(C(=O)NS(=O)(=O)c2cccc(Cl)c2)CCN1C(=O)C/C=C/c1ccccc1 (configuration not stated)
→ -1.3, 13, 19, 2.4
> C[C@H](CO)N1C[C@H](C)[C@@H](CN(C)Cc2ccc3c(c2)OCO3)OCc2ccccc2-c2ccccc2C1=O
→ 0.8, 0, 8, -5.7
> C[C@H]1CN([C@@H](C)CO)C(=O)Cc2cc(NS(=O)(=O)c3ccc(F)cc3)ccc2O[C@H]1CN(C)S(C)(=O)=O
→ -1.6, 1, 8, 1.7
> CN(Cc1cn(Cc2ccccc2)nn1)C1CN(Cc2cn(Cc3ccccc3)nn2)S(=O)(=O)C1 (configuration not stated)
→ -0.7, 1, 1, 1.9
> C[C@H]1CN([C@@H](C)CO)C(=O)CCCn2nncc2CO[C@@H]1CN(C)Cc1ccc(O)cc1
→ -0.9, 1, -2, -2.3
> CCCN1[C@@H]2c3cccc(=O)n3C[C@@H]2[C@@H](CO)[C@@H]1C(=O)N1CCCCC1
→ -1.6, 2, 5, -6.0
> C[C@@H]1CN([C@H](C)CO)C(=O)c2cccc(NC(=O)c3cnccn3)c2O[C@H]1CN(C)S(=O)(=O)c1ccc(F)cc1
→ -4.5, 5, 1, -1.9
> Cc1noc(C)c1NC(=O)Nc1ccc2c(c1)C(=O)N([C@@H](C)CO)C[C@H](C)[C@H](CN(C)C)OCCCC[C@H](C)O2
→ 3.6, 4, 6, -1.0
> N#C[C@H]1[C@@H](c2ccccc2C2=CCCC2)[C@@H](CO)N1C(=O)C1CC1
→ 0.3, -1, 1, -1.9
> CCN(CC)c1ncnc2c1ncn2[C@H]1CN(Cc2ccc3c(c2)OCO3)C[C@@H](CO)O1
→ -2.2, -8, -1, 2.4
> C[C@@H]1CN([C@@H](C)CO)C(=O)c2cc(NC(=O)Nc3ccc4c(c3)OCO4)ccc2O[C@@H](C)CCCCO[C@@H]1CN(C)C(=O)c1ccccc1
→ -5.4, 1, 1, 2.0
> CCc1nc2c(OCCOc3ccccc3)cccn2c1N(C=O)Cc1ccc(OC)cc1
→ 1.0, -10, -52, 7.5
> CC(C)NC(=O)N(C)C[C@H]1Oc2cc(C#Cc3ccc(F)cc3)ccc2S(=O)(=O)N([C@H](C)CO)C[C@@H]1C
→ 0.2, -7, -8, -0.4
> CC(C)C[C@H]1CN(CCCC[C@@H]2CNC(=O)C(=O)N2CCc2ccccc2)C(=O)C(=O)N1CCc1ccccc1
→ -2.3, -22, -34, -0.2
> O=C(Nc1ccccc1F)N1[C@H](CO)[C@@H]2c3ccccc3NC[C@@H]21
→ 0.1, 2, 2, -2.0

Reprinted from the part before: 4 entries, followed by the next part.
Order of values – MLL AF4-AF9 inh, rRNA inh HTS, rRNA inh HTS OD600, rRNA inh HTS RFP
> CCc1nc2c(OCCOc3ccccc3)cccn2c1N(C=O)Cc1ccc(OC)cc1
→ 1.0, -10, -52, 7.5
> CC(C)NC(=O)N(C)C[C@H]1Oc2cc(C#Cc3ccc(F)cc3)ccc2S(=O)(=O)N([C@H](C)CO)C[C@@H]1C
→ 0.2, -7, -8, -0.4
> CC(C)C[C@H]1CN(CCCC[C@@H]2CNC(=O)C(=O)N2CCc2ccccc2)C(=O)C(=O)N1CCc1ccccc1
→ -2.3, -22, -34, -0.2
> O=C(Nc1ccccc1F)N1[C@H](CO)[C@@H]2c3ccccc3NC[C@@H]21
→ 0.1, 2, 2, -2.0
> C[C@@H]1CN([C@@H](C)CO)S(=O)(=O)c2ccc(Br)cc2O[C@@H]1CN(C)CC1CCOCC1
→ 0.2, -3, -5, -4.4
> CO[C@@H]1CN(C)C(=O)c2ccc(NC(=O)Nc3ccc(F)cc3)cc2OC[C@H](C)NC[C@H]1C
→ 1.3, -1, -4, -1.2
> C[C@@H]1CN([C@H](C)CO)C(=O)c2cc(C#CC3CCCC3)cnc2O[C@@H]1CN(C)C(=O)C1CCC1
→ -0.8, 6, 7, -1.3
> C[C@@H]1CN([C@H](C)CO)C(=O)CCCn2cc(nn2)CO[C@@H]1CN(C)Cc1cccc(C(=O)O)c1
→ -15, 2, 5, 0.9
> O=C(NC[C@H]1[C@H](c2ccccc2)[C@@H](CO)N1Cc1cccnc1)c1ccccn1
→ -0.7, -3, -6, 0.6
> CN(C)C(=O)[C@H]1[C@H](CO)[C@H]2Cn3c(ccc(C4=CCCC4)c3=O)[C@@H]1N2C(=O)c1ccccc1
→ -0.3, -1, 1, -1.3

The list is partial; rates above refer to the full screens.
